# Screening results deposited in PubChem by National Center for Advancing Translational Sciences (NCATS).
# VDR inhibitor = inhibitors of human vitamin D receptor; VDR-SRC2-3 peptide fluorescence polarization, 2 h; P11473; Potency, µM, for the others: max response, negative = inhibition, hits mostly inhibitors; 400,000 compounds, 0.93% hits; active = well fitted inhibition curve with a large enough effect; inconclusive = small, poorly fitted or top-dose-only effect, or another doubt; inactive = no such curve, though single readings can be large or run the other way; note: series mostly up to about 120 µM
# Target sequence (P11473 whole entry, looked up): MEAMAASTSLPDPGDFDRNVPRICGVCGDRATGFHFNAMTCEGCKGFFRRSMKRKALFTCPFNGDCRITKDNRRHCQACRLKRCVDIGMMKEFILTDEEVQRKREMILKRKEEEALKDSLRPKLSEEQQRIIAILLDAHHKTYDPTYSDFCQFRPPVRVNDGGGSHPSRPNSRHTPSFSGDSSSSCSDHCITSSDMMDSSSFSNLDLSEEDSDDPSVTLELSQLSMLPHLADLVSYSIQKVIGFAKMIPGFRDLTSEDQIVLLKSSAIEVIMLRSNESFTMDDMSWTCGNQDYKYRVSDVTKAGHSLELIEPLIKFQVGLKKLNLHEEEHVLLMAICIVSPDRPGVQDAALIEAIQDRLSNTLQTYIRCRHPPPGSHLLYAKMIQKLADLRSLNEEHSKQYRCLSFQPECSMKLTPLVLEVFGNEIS
#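 Signal is fluorescence polarization, reporting how far test compounds block the interaction of VDR with the SRC2-3 coregulator peptide after a 2 h room-temperature incubation.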
# Active calls of the source: *; ? = inconclusive. % is set by controls: 0 for no effect and ±100 for the full control effect; potency is the fitted concentration of half-maximal effect. The list is partial. The share of hits here may be higher or lower than overall.
structure	VDR inhibitor
Cc1sc2ncn(C(C)C(=O)OC3CCCCC3)c(=O)c2c1C (stereo not given)	-12%
COC(=O)c1ccc(-c2ccc(/C=N/NC(=O)CC3(C)OCCCO3)o2)cc1	-9%
CS(=O)(=O)N(CC(=O)N1CCC(C(N)=O)CC1)c1ccc(Oc2ccccc2)cc1	8%
Cc1cc(C)n2nc(C(=O)Nc3c(C)nn(Cc4ccc(F)cc4)c3C)cc2n1	23%
CCCc1ccc(Oc2cc(N3CCOCC3)nc(-c3ccccc3)n2)cc1	25%
CCCCOc1ccc(C(=O)Oc2ccc(C)nc2)cc1	3%
Cc1c(Cl)cccc1NC(=S)NCc1ccccc1Cl	-4%
CC(Cc1ccccc1)N/C=C1/CC(=O)NC1=O (stereo not given)	6%
O=C1NC(c2ccccc2Br)=N/C1=C\c1ccco1	5%
Cc1ccccc1-n1c(Cc2cccs2)n[nH]c1=S	5%
CC(C)(C)NC(=S)NNC(=O)c1cccc(Br)c1	-22%
COC(=O)C1=C(NC(=O)COc2ccc(Cl)cc2Cl)CCS1	-6%
N/C(=N\OC(=O)c1ccc(Cl)cc1[N+](=O)[O-])c1cccnc1	-5%
O=C(OCc1nc2ccccc2[nH]1)C12CC3CC(CC(C3)C1)C2	-4%
O=C(c1cc(COc2ccc(F)cc2F)on1)N1CCOCC1	10%
CCCC1(CCC)NC(=O)NC1=O	11%
Cc1ccc(-c2nnn(CC(=O)N(CC3CCCO3)C(C(=O)NC3CCCC3)c3ccc(F)cc3)n2)o1 (stereo not given)	-4%
O=C(NC1CCCCCC1)c1ccc(Br)o1	7%
Cc1cc(NC(=O)C2CCCCC2)ccc1NC(=O)c1ccccc1Cl	-19%
CC(=O)NC1CCCc2c1cnn2-c1ccc(C(C)(C)C)cc1 (stereo not given)	1%
O=C(CSc1ccccc1)NCC1(N2CCCCC2)CCCCC1	3%
CCOCCCNS(=O)(=O)c1ccc(Br)cc1	-17%
CCc1cccc2c(=O)c(C(=O)N3CCOCC3)c[nH]c12	0%
CCCn1c(=S)[nH]c2cc(OC)c(OC)cc2c1=O	5%
O=C(CNS(=O)(=O)c1ccccc1)Nc1ccc(F)cc1F	7%
O=[N+]([O-])c1ccc2c(c1)nc1n2CCN(C2CCCCC2)C1	-24%
CC(C)c1ccc(NC(=O)N2CCOCC2)cc1	-15%
CN(C(=O)c1cccc(NC(=O)Cc2cccc(NC(=O)C3CCCN(C(=O)C4CC4)C3)c2)c1)C1CC1 (stereo not given)	-7%
O=c1c(N2CCOCC2)coc2ccccc12	-4%
COc1ccc(N(Cc2ccccc2)C(=O)OC(C)(C)C)c(C(=O)N(C)OC)c1	9%
COc1ccc(O)c(C(=O)c2cnn(C(=O)c3cccc(S(=O)(=O)N(C)C)c3)c2)c1	-7%
O=C1C2C3C=CC(O3)C2C(=O)N1N=Cc1cccc2ccccc12 (stereo not given)	0%
CCOC(=O)C1=C(C)N=c2s/c(=C\c3ccc(C(=O)O)cc3)c(=O)n2C1c1ccc(OC)cc1OC (stereo not given)	?
Cc1c(C(=O)N2CCOCC2)oc2c1-c1nn(CC(=O)NCc3ccccc3)cc1CC2	1%
CCc1ccc(NC(=O)CSc2nc3ncc(Br)cc3[nH]2)cc1	-9%
O=C(NCCCc1nc2ccccc2n1CCOc1ccccc1)C1CCCCC1	-7%
CC(Oc1ccccc1)C(=O)N1CCC2(CC1)CC(=O)c1ccccc1O2 (stereo not given)	-1%
Cc1ccc(CSc2ncn(-c3ccccc3)n2)cc1	-8%
CC(C)C(=O)Nc1nc2c(s1)CC(C(C)(C)C)CC2 (stereo not given)	7%
CCOC(=O)C(C)Sc1nnc(Cc2cc(=O)[nH]c(=O)[nH]2)n1-c1ccc(OCC)cc1 (stereo not given)	-12%
Cc1cc(C)c(NC(=O)CSc2nc3ccccc3nc2N2CCCCC2)c(C)c1	3%
O=C(CSc1ccccc1)Nc1ccc(NC(=O)c2ccco2)cc1	12%
CCCCN=c1scc(-c2ccc3c(c2)NC(=O)CO3)n1N=C1CCCC1	-13%
COCCCNC(=S)NNC(=O)C(O)(c1ccccc1)c1ccccc1	-13%
CC(C)NC[C@H]1CCc2cc(CO)c([N+](=O)[O-])cc2N1	-7%
COc1ccc(C(C)(C)C)cc1NC(=O)COC(=O)CN1C(=O)NC2(CCCCC2C)C1=O (stereo not given)	-10%
COc1ccc(-c2nnc(SCC(=O)NNC(=O)Cc3ccccc3)n2C)cc1OC	40µM*
O=C(CSC1=NC(=O)C(Cc2ccccc2)C(=O)N1)NC1CCCCC1 (stereo not given)	11%
O=C(O)CSCC(=O)N1CCN(c2nc3cc(Cl)ccc3s2)CC1	-3%
CCCCn1c(=O)[nH]c(=O)c2c1nc(-c1cc(Br)c(OCC)c(OC)c1)n2C	-15%
Cc1c(C(=O)N2CCC(C)CC2)sc2ncnc(N3CCN(c4ccccc4)CC3)c12	23%
CCCC(=O)N1c2ncnn2C2(CCCCC2)[C@@H]2CCCC[C@@H]21	2%
CN(C(=O)OCc1ccccc1)C(CC(N)=O)C(=O)O (stereo not given)	3%
CCN(CC)C(=O)c1ccc(-c2nnc(Nc3ccc(O)cc3)c3ccccc23)cc1	10%
COc1ccc(CCN2CC(C(=O)NCCc3cccc(F)c3)CCC2=O)cc1 (stereo not given)	-11%
O=C(CN1CCC(C(=O)c2ccc(F)cc2)CC1)NCc1ccccc1F	-14%
CC(C)C[C@@H](CC(=O)N[C@@H](CCC(=O)O)CC(=O)O)NC(=O)[C@@H]1CCCC[C@H]1NC(=O)C[C@@H](NC(=O)C[C@H](CO)NC(=O)[C@@H]1CCCC[C@H]1N)C(C)C	0%
COc1ccc(OCC(=O)NC2CCSc3ccccc32)cc1 (stereo not given)	0%
C[C@@H](C(=O)NCCc1c[nH]c2ccccc12)[C@H]1C[C@]1(C)[C@H](NC(=O)OCc1ccccc1)c1ccccc1	-10%
CCOC(=O)/C(C#N)=N/Nc1ccccc1C(=O)O	-2%

# Remaining list, next part:
Structure | VDR inhibitor
CCc1ccc2oc(-c3cccc(NC(=O)C(C)(C)Oc4ccc(Br)cc4)c3)nc2c1 | 5%
Cc1ccc(C(=O)CCCn2nnc(-c3cccnc3)n2)cc1C | -9%
O=C(COc1ccc(F)cc1)N1CCC(Cc2ccccc2)CC1 | 1%
COc1ccc(/C=N/NC(=O)c2nc(-c3ccccc3)cc(-c3ccccc3)n2)cc1O | 6%
COc1ccc(CNc2ncnc3ccc(-c4c(C)noc4C)cc23)c(OC)c1 | -10%
O=C(CCNC(=O)OCc1ccccc1)NC1CCCCCC1 | -17%
O=C(Nc1ccc(N2CCCC2)cc1)c1cc([N+](=O)[O-])ccc1N1CCOCC1 | -6%
Cc1ccc(/C(O)=C2/C(=O)C(=O)N(CCN3CCOCC3)C2c2cccnc2)cc1 (stereo not given) | 23%
Cc1cc2c(c(C)c1Cl)C(c1ccc3c(c1)OCO3)CC(O)(c1ccccc1)O2 (stereo not given) | -11%
CCOc1cc(C#N)ccc1OCC(=O)N1CCN(C(=O)c2cccs2)CC1 | 12%
CCCCCCCC(=O)NC(Nc1ccccc1OC)C(Cl)(Cl)Cl (stereo not given) | 3%
CCOC(=O)c1ccc(NS(=O)C23CC4CC(CC(C4)C2)C3)cc1 (stereo not given) | 8%
O=C(OCC(=O)N1CCC(c2ccccc2)=N1)c1ccc(Cl)s1 | -23%
Clc1ccc(COc2cccc(CNCc3ccncc3)c2)cc1 | -7%
CC(Sc1ncccn1)C(=O)N1CCc2ccccc21 (stereo not given) | 3%
COc1ccc(OC)c(C(c2nnnn2CCc2ccccc2)N2CCN(c3ccccc3)CC2)c1 (stereo not given) | 6%
CCc1ccc(NC(=O)[C@H](C)NC(=O)C2CCN(C(=O)[C@@H](NC(=O)OC(C)(C)C)C(C)C)CC2)cc1 | -15%
CCOc1ccccc1-c1nc(SCC(=O)c2ccc(OC)c(Br)c2)n[nH]1 | 20%
CC(C)(C)c1[nH]nc2c1C(c1ccc(OC(=O)c3ccco3)cc1)C(C#N)=C(N)O2 (stereo not given) | -1%
COc1ccc(S(=O)(=O)N(CC(=O)NCCSCc2ccccc2)c2ccc(C)cc2)cc1 | 1%

# Overlap with the part before: 6 compounds; new compounds follow.
Structure | VDR inhibitor
CC(Sc1ncccn1)C(=O)N1CCc2ccccc21 (stereo not given) | 3%
COc1ccc(OC)c(C(c2nnnn2CCc2ccccc2)N2CCN(c3ccccc3)CC2)c1 (stereo not given) | 6%
CCc1ccc(NC(=O)[C@H](C)NC(=O)C2CCN(C(=O)[C@@H](NC(=O)OC(C)(C)C)C(C)C)CC2)cc1 | -15%
CCOc1ccccc1-c1nc(SCC(=O)c2ccc(OC)c(Br)c2)n[nH]1 | 20%
CC(C)(C)c1[nH]nc2c1C(c1ccc(OC(=O)c3ccco3)cc1)C(C#N)=C(N)O2 (stereo not given) | -1%
COc1ccc(S(=O)(=O)N(CC(=O)NCCSCc2ccccc2)c2ccc(C)cc2)cc1 | 1%
CC(=O)c1cccc(N=C2NC(=O)CS2)c1 | -3%
O=C(Cn1ncc(Cl)c(Cl)c1=O)NCC1CCCCC1 | 4%
Nc1c(Cl)cc(C2=NCCn3nc4ccccc4c32)cc1Cl | -18%
O=C(Nc1c(C(=O)O)[nH]c2ccccc12)NC1CCCCC1 | -8%
Nc1cc(CN2C(=O)c3ccccc3C2=O)cc(Cl)c1O | 5%
O=c1c2c3c(sc2ncn1Cc1ccc(F)cc1)CCC3 | 5%
O=C(NNC(=O)c1ccccc1O)c1ccc(S(=O)(=O)Nc2ccccc2)cc1 | 0%
CCOC(=O)C1=C(N)OC2=C(C(=O)CC(C)C2)C1c1cccnc1 (stereo not given) | -1%
COc1ccc(CNC[C@H]2O[C@@H](n3cnc4c(N)ncnc43)[C@H](O)[C@@H]2O)cc1OC | -10%
CCn1c(SCC(=O)N2CCC(C)CC2)nc2c1c(=O)n(C)c(=O)n2C | -6%
C=CCSc1nc(=O)n2ccccc2n1 | 14%
Cc1cccc(-c2nc3c(C#N)c[nH]n3c2NC2CCCCC2)c1 | 3%
COC(=O)c1cccc(NC(=O)Nc2ccc(Cl)cc2Cl)c1 | -12%
COc1cccc(CNC(=O)CCCn2c(=S)[nH]c3cc4c(cc3c2=O)OCO4)c1 | -19%
Nc1nc(NC(=O)c2ccc(F)cc2)ns1 | ?
CC(C)OC(=O)Nc1ccc2c(c1)N(C(=O)CCN1CCN(CCO)CC1)c1ccccc1CC2 | 1%
CCCOC(=O)c1ccc(NC(=O)C2CC(=O)N(c3ccc(C)cc3)C2)cc1 (stereo not given) | 12%
COc1ccccc1CNC(=O)COC(=O)c1cnccn1 | 14%
CCCCn1c(N)c(N(CCOC)C(=O)c2cnccn2)c(=O)[nH]c1=O | -19%
Cn1cnnc1SCC(=O)c1c(N)n(Cc2ccccc2)c(=O)n(C)c1=O | 6%
Cc1ccc(-c2nc(NCc3ccco3)n(C(=O)c3ccco3)n2)cc1 | -6%
CC(C)(C)NC(=O)C(=O)NCc1ccccn1 | -9%
COc1ccc(NC(=O)CCS(=O)(=O)c2cc3c(cc2C)NC(=O)CO3)cc1Cl | -2%
CC(=O)Nc1ccc(N/C=C(\C=O)c2nc3ccccc3o2)cc1 | 3%
COc1ccccc1-c1ccc(SCc2cccc(F)c2)nn1 | -11%
Cc1ccc2ccc(C(Nc3ccccn3)c3ccccc3)c(O)c2n1 (stereo not given) | ?
Cc1ccc(NCc2n[nH]c(=S)n2-c2ccccc2)c(C)c1 | -15%
Cc1ccc(C(c2sc3nc(-c4ccco4)nn3c2O)N2CCN(Cc3ccccc3)CC2)cc1 (stereo not given) | 7%
Cc1cc(C)n(CCNC(=O)c2cc(COc3ccc4ncccc4c3)on2)n1 | -5%
Cc1ccc(Nc2cc(C(=O)NCCCN3CCOCC3)c3ccccc3n2)cc1C | -12%
COc1ccccc1N1CCN(C(=O)CSc2nc3ccccc3nc2N2CCCCC2)CC1 | -20%
CCCCn1c(N)c(N(CCC(C)C)C(=O)CSc2nnc(Nc3ccccc3)s2)c(=O)[nH]c1=O | -15%
CC1=C(C(=O)OCC2CCCCC2)C(c2ccccc2F)NC(=O)N1 (stereo not given) | -4%
CCCCn1c(SCC(=O)N2CCCc3ccccc32)nc2c1c(=O)n(C)c(=O)n2C | -17%
O=C(COc1ccccc1)Nc1ccccc1C(=O)OCc1cc(=O)n2nc(C3CC3)sc2n1 | -2%
COC(=O)N/N=C1\CCCc2ccccc21 | -11%
Cn1c(C(=O)OCC(=O)NCc2ccco2)cc2sccc21 | -11%
Cc1ccc(-c2cnc3ccccc3n2)cc1C | 2%
COC(=O)/C(C#N)=C/c1c(N2CCN(c3ccccc3)CC2)nc2c(C)cccn2c1=O | -5%
O=c1[nH]c(CN2CCN(S(=O)(=O)c3ccc(Cl)cc3)CC2)nc2cc(Cl)ccc12 | -9%

# A stretch from further up, as a working copy:
Structure | VDR inhibitor
CCCCn1c(SCC(=O)N2CCCc3ccccc32)nc2c1c(=O)n(C)c(=O)n2C | -17%
O=C(COc1ccccc1)Nc1ccccc1C(=O)OCc1cc(=O)n2nc(C3CC3)sc2n1 | -2%
COC(=O)N/N=C1\CCCc2ccccc21 | -11%
Cn1c(C(=O)OCC(=O)NCc2ccco2)cc2sccc21 | -11%
Cc1ccc(-c2cnc3ccccc3n2)cc1C | 2%
COC(=O)/C(C#N)=C/c1c(N2CCN(c3ccccc3)CC2)nc2c(C)cccn2c1=O | -5%
O=c1[nH]c(CN2CCN(S(=O)(=O)c3ccc(Cl)cc3)CC2)nc2cc(Cl)ccc12 | -9%

# Later entries
Structure | VDR inhibitor
Cc1cc(C)n2[nH]c(=O)c(N=Nc3ccc(S(N)(=O)=O)cc3)c2n1 | 5%
O=C(CCC(=O)c1ccc(F)cc1)NC1CCCN(Cc2ccccc2F)C1 (stereo not given) | -23%
COc1ccc(NC(=O)CSc2n[nH]c(C)c2[N+](=O)[O-])cc1 | -8%
CCCn1c(SCC(=O)Nc2cccc(C)n2)nnc1C(C)C | 14%
Cc1ccc(S(=O)(=O)N(C)C)cc1NC(=O)c1cc(-c2ccncc2)nc2ccccc12 | -6%
C=CCn1c(N)cc(=O)nc1SC(C)C(=O)Nc1ccc(C(=O)OCC)cc1 (stereo not given) | -22%
COc1ccc(Cn2c(CO)cnc2SCc2ccccc2C)cc1 | 10%
